StopGo reporter: lowers the luciferase signal of an FMDV 2A StopGo reporter. human cells with a luciferase reporter of 2A StopGo recoding; control for the full effect not named in the record. Potency, µM (doses to about 57.9 µM), for inactives: top-dose signal change, negative = less light. 410,000 tested, 1.2% active. AID 1159524; active = well fitted falling curve with a large enough effect; inconclusive = small, poorly fitted or top-dose-only effect; inactive = no such curve, though single readings can be large or run the other way; tested in HEK293T cells; note: % is set by controls: 0 for no effect and ±100 for the full control effect; nearly all actives have a fitted effect of over 45% in size; luciferase light after 4 h
LASV entry inh: blocks Lassa virus binding to or entry into cells; Lassa virus pseudotype entry inhibition, cell reporter; control for the full effect not named in the record; 300,000 tested, 1.2% active; Potency, µM (top dose mostly 37.9 µM), for inactives: at the top dose activity change, negative = inhibition, usual class: inhibitors; AID 540256; active means well fitted inhibition curve with a large enough effect; inconclusive means small, poorly fitted or top-dose-only effect, or effect the other way; inactive means flat fitted curve, though single readings scatter; tested in HEK293 cells; note: % is set by controls: 0 for no effect and ±100 for the full control effect; nearly all actives have a fitted effect of over 50% in size; luciferase read-out
RE007 growth inh: less growth of the S. pombe RE007 Vpr strain; Potency, µM (titrated, usually from 92.2 µM), without a hit: at the highest dose activity change, negative = less growth; 360,000 tested, 0.21% active; S. pombe RE007 Vpr strain, BacTiter-Glo ATP luminescence, 24 h; control for the full effect not named in the record; active = well fitted falling curve with a large enough effect; inconclusive = small, poorly fitted or top-dose-only effect; inactive = no such curve, though single readings can be large or run the other way;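 note: % is set by controls: 0 for no effect and ±100 for the full control effect; nearly all actives have a fitted effect of over 50% in size; the assay follows cell death caused by Vpr and the record does not say whether a fall means rescue or toxicity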
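Fission yeast strain RE007, carrying one chromosomally integrated HIV-1 vpr copy, was seeded at OD 0.01 in PMG+AL medium with 23 nL pinned compound. After 24 h at 30 °C and 99% humidity, viability was read by BacTiter-Glo luminescence.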
Cruzain inh Det: inhibitors of Trypanosoma cruzi cruzain with detergent; purified cruzain, Z-FR-AMC fluorescence, 0.01% Triton; Potency, µM, for inactives: max response, negative = inhibition, actives largely listed as inhibitors; 200,000 tested, 0.43% active; AID 1478;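 note: plate controls were neutral wells for no effect and buffer without enzyme for full effect; nearly all actives have a fitted effect of over 40% in size; top concentration of the series not given in the record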
Target sequence (P25779 123-467 limits assumed): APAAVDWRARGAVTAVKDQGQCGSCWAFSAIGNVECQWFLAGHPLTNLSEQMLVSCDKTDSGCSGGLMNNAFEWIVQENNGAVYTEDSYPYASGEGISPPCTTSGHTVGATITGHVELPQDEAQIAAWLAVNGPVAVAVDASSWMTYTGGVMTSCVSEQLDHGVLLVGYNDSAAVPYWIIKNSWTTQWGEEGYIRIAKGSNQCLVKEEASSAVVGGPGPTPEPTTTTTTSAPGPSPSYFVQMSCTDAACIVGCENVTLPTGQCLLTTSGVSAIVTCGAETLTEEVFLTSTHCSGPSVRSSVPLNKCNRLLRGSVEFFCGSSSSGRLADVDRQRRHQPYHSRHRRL
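Detergent-containing arm of a paired screen for aggregation-based inhibition: 0.01% Triton X-100 present. Cruzain at 1.5 nM cleaved 2 uM Z-FR-AMC at pH 5.5 with 5 mM DTT; AMC fluorescence gain over 60 s measured activity.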
NS1 inh: influenza NS1 inhibition | S. cerevisiae slowed by influenza A NS1, growth recovery by OD600 | Potency, µM (titrated, usually from 46.1 µM), for inactives: top-dose activity, positive = more growth | 270,000 tested, 0.4% active; active means well fitted rising curve with a large enough effect; inconclusive means small, poorly fitted or top-dose-only effect; inactive means no such curve, though single readings can be large or run the other way; note: nearly all actives have a fitted effect of over 50% in size
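OD600 was taken as the measure of yeast growth restored by compound in an NS1-expressing S. cerevisiae strain. Cells had been washed out of glucose medium and diluted 1:100 into galactose -URA medium, pH 6.0.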
Cruzain noTriton: blocks cruzain activity in detergent-free assay; P25779; purified cruzain, Z-FR-AMC fluorescence, no detergent; Potency, µM, inactives show max response, negative = inhibition, most hits filed as inhibitors; 200,000 tested, 2.3% active; AID 1476;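 note: plate controls were enzyme without inhibitor for no effect and buffer without enzyme for full effect; nearly all actives have a fitted effect of over 40% in size; top concentration of the series not given in the record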
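Purified cruzain at 1.5 nM, pre-incubated 15 min with compound at room temperature in 100 mM sodium acetate pH 5.5, 5 mM DTT, 0.00005% Triton X-100. Reaction started with 2 uM Z-FR-AMC; AMC fluorescence increase over 60 s gives rate.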
SARS PLpro yeast: blocks SARS-CoV papain-like protease in a yeast assay | S. cerevisiae expressing SARS-CoV PLpro, growth rescue; control for the full effect not named in the record | Potency, µM (series often up to 32.9 µM), without a hit: at the highest dose activity, positive = growth rescue | 330,000 tested, 0.19% active | AID 485353; active means well fitted rising curve with a large enough effect; inconclusive means small, poorly fitted or top-dose-only effect; inactive means no such curve, though single readings can be large or run the other way; note: 0% is about no effect; nearly all actives have a fitted effect of over 55% in size; growth read by luminescence after 48 h
MARV entry inh: blocks Marburg virus binding to or entry into cells; Marburg virus pseudotyped entry inhibition, cell reporter; control for the full effect not named in the record; about a third of the inactives were read at about 46 µM; Potency, µM (titrated, usually from 37.8 µM), for inactives: top-dose activity change, negative = inhibition, most hits filed as inhibitors; 300,000 tested, 1.8% active; active = well fitted inhibition curve with a large enough effect; inconclusive = small, poorly fitted or top-dose-only effect, or effect the other way; inactive = flat fitted curve, though single readings scatter; tested in HEK293 cells; about a fifth of its hits are not listed in these tables; note: % is set by controls: 0 for no effect and ±100 for the full control effect; luciferase read-out
* hit, by the source's call; ? = inconclusive; . = not tested or not shown; & = joins results of further samples; [ ] = dose if it differs, or a comment. Unless noted, calls come from the whole dose curve; as a rule, active = well fitted curve in the direction sought with a large enough effect; inconclusive = small, poorly fitted or top-dose-only effect, or another doubt; inactive = no such curve, though single readings can be large; an effect the other way counts as inactive or inconclusive. Potency is the fitted concentration of half-maximal effect.

mol | StopGo reporter | LASV entry inh | RE007 growth inh | Cruzain inh Det | NS1 inh | Cruzain noTriton | SARS PLpro yeast | MARV entry inh
COc1ccc(C(=O)N2CCC(n3c(C)nc4cc(F)ccc43)CC2)cc1OC | 1% | -13% | -17% | 4.8% | -8% | 7% | -3% | 20%
CCOc1ccc(N(CC(=O)N2CCN(C(=O)CN(c3ccc(OCC)cc3)S(C)(=O)=O)CC2)S(C)(=O)=O)cc1 | -5% | . | 7% | . | 3% | . | 0% | .
Fc1ccc(NC(=S)NNc2ncc(C(F)(F)F)cc2Cl)c(F)c1 | -41% | ? | 14% | . | -53% | . | -3% | ?
COc1ccccc1-n1cnc(N)c1C(=O)c1ccccc1 | -14% | -3% | 3% | -2.1% | -2% | 3% | 8% | ?
CCc1ccc(N(C)S(=O)(=O)c2ccc3[nH]cc(C(=O)NCCN4CCOCC4)c(=O)c3c2)cc1 | ? | -4% | -14% | 3.4% | -2% | 29% | 0% | -11%
Cc1cc(NN)nc(NS(=O)(=O)c2ccccc2)n1 | -2% | 3%[46.1 µM] | -20% | . | 10% | . | 1% | 10%[46.1 µM]
CCOc1cc(CNCCc2c[nH]c3ccccc23)cc(Cl)c1OCC(N)=O | -23% | . | -6% | . | 2% | . | 0% | .
CC(=O)c1ccc(NC(=O)c2nc(-c3ccccc3)n(-c3ccc(C)cc3)n2)cc1 | -20% | 7%[46.1 µM] | . | -5.5% | . | 8% | . | 4%[46.1 µM]
CCOC(=O)c1cc(C#N)c(NCc2ccccc2)nc1C | 10% | -9%[14.3 µM] | 12% | -7.6% | 4% | 5% | 15% | -9%
Cc1oc(-c2ccccc2Cl)nc1CN1C(=O)CN=C(c2ccccc2)c2ccccc21 | -7% | ? | 2% | -2.2% | -49% | 5% | -71% | ?
COc1ccc(/C=N/NC(=O)c2ccc(COCC(F)(F)C(F)F)cc2)cc1 | -23% | ? | -20% | -5.3% | 3% | ? | -4% | -8%
c1cnc2c(OCc3cn4cccnc4n3)cccc2c1 | 23% | 19% | -1% | -6.1% | 16% | 7% | -9% | 8%
O=C(c1ccco1)N(CCCN1CCOCC1)c1nc(-c2ccc(F)cc2)cs1 | . | ? | -10% | -20% | -80% | -13% | -1% | ?
CCc1ccccc1NC(=O)Nc1cccn(Cc2ccc(F)cc2)c1=O | ? | 1% | 7% | . | -1% | . | 2% | -15%
O=c1[nH]c(=S)[nH]cc1Oc1ccc(Br)cc1Br | -7% | -5%[46.1 µM] | 14% | . | . | . | . | ?
CC(C)CN1CCN(Cc2cccc3ncccc23)CC1CCO (centres undefined) | -8% | 5% | -16% | . | 2% | . | 0% | -3%
O=S(=O)(c1ccccc1)c1nc(-c2cccc(Cl)c2)oc1NCc1ccccc1 | -1% | ? | . | 0.3% | . | 9% | . | -5%[46.1 µM]
COc1ccc(-c2cc(C(=O)NC(C)C)no2)cc1 | 25% | -17% | -10% | -1.9% | -14% | -1% | 12% | ?
COc1ccc(Cl)cc1NC(=O)COc1cccc2c(=O)n(C)ccc12 | -7% | 5%[46.1 µM] | . | -0.7% | . | 6% | . | .
COC(=O)C(NC(=O)c1ccccc1)=C1C=C(C)OC(C)=C1 | 7% | 19% | 19% | -13% | 7% | -22% | 5% | 9%
O=C(c1ccc(=O)[nH]n1)N1CCN(S(=O)(=O)c2cccc(F)c2)CC1 | 10% | 11% | 0% | . | . | . | -1% | 5%
Cc1ccc(/C=C2/Sc3ccccc3N(CC(=O)NCC3CCCO3)C2=O)cc1 (centres undefined) | -18% | . | 1% | . | -9% | . | -7% | .
NC(=O)c1nc(N2CCOCC2)nc(N2CCOCC2)n1 | -14% | 6% | 1% | -3.6% | -2% | 0% | -3% | -11%
O=C(Nc1ccc2ccccc2c1)c1cnccn1 | -3% | ? | -3% | -3.7% | -10% | -15% | -6% | ?
COc1ccc(CCNC(=O)CCC(=O)n2ncc3cc(C)ccc32)cc1OC | -20% | . | -16% | . | -6% | . | -1% | .
CCOc1cc(N2CCOCC2)c(OCC)cc1NC(=O)C(C)(C)C | 13% | 8%[46.1 µM] | 7% | . | . | . | -1% | 7%[46.1 µM]
COc1ccc2cc3cc(C(=O)NCCCN4CCOCC4)oc3nc2c1 | -25% | -27% | ? | 32µM* | -8% | ? | 2% | -20%
O=C(O)CSc1cc(C(=O)c2cc(F)ccc2O)cn2c(=O)c3c(-c4ccccc4)csc3nc12 | 7% | . | -7% | . | 18% | . | 0% | .
C[C@H](Cc1ccccc1)Nc1ncnc2c1ncn2[C@@H]1O[C@H](CO)[C@H](O)[C@H]1O | . | . | . | 4.0% | -3% | 12% | . | 23%
O=C(CCCCCn1c(=S)[nH]c2ccccc2c1=O)N1CCOCC1 | 17% | -1% | -5%[3.69 µM] | -3.4% | 11% | -9% | -5% | 2%
O=C(Nc1cccc([N+](=O)[O-])c1)NC1CCCCCCC1 | -15% | ? | -6% | . | -98% | . | -7% | ?
COc1cccc(CNC(=O)CCCNC(=O)c2ccc(Cl)cc2)c1 | -9% | 3%[46.1 µM] | -26% | . | -17% | . | 9% | 1%[46.1 µM]
CN(Cc1ccc(N(C)C)cc1)C(=O)c1cc2ccccc2o1 | 41%[activator] | ? | 0% | . | 0% | . | -19% | -12%[46.1 µM]
CCOC(=O)c1c2n(c3ccc(OC(C)=O)cc13)CCC2 | -12% | . | -6% | 1.4% | -115% | -2% | -17% | .
O=Cc1c(-c2ccc(Cl)cc2)oc2ccc(O)cc12 | 24% | 19%[46.1 µM] | -5% | . | . | . | . | ?
COc1ccccc1C(=O)COC(=O)C1(C)CC1(Cl)Cl (centres undefined) | 44%[activator] | ? | 1% | . | . | . | -6% | -5%
CCOc1ccc(-c2cn(CCC#N)cn2)cc1 | . | 4% | 10% | 10% | -5% | 5% | 3% | ?
Cc1ccc(-c2csc(NC(=O)CSc3nnc4c(n3)[nH]c3ccccc34)n2)cc1 | ? | 3.2µM* | 22% | -10% | 3% | 16µM* | ? | ?
Cc1nn(CC2CC2)c(=O)n1-c1ccc(C(C)C)cc1 | 23% | 0% | 16% | . | -4% | . | 3% | 13%[46.1 µM]
COCCCC1CCN(C(=O)C2CCC(=O)N(Cc3ccccc3F)C2)CC1 (centres undefined) | -2% | 7% | 2% | . | 9% | . | 7% | -8%
CCCN(CCC)Cc1c(C(=O)OCC)nnn1-c1nonc1N | -6% | 10% | -3% | -2.0% | -3% | -7% | 2% | 4%
COc1ccccc1NC(=O)CCCc1nnc2n(C)c(=O)c3sccc3n12 | -11%&0% | 19%&17%[46.1 µM] | -1% | -2.2% | 18% | -2% | -2% | 19%&6%[46.1 µM]
O=C(NCCc1ccc2c(c1)OCO2)C1CCN(S(=O)(=O)c2ccc(Cl)cc2)CC1 | . | -1% | -7% | -1.1% | -6% | 4% | 5% | -1%&-13%
CC1Cc2ccccc2N1C(=O)COC(=O)c1ccc([N+](=O)[O-])o1 (centres undefined) | -10% | 10% | ? | . | . | . | -5% | 0%
Oc1ccccc1C=Nc1ccccc1-c1nc2ccccc2[nH]1 | -36% | ? | 10% | 17% | -10% | -5% | -34% | ?
COCc1c(C#N)c(NCCc2ccccc2)nc(C)c1[N+](=O)[O-] | -17% | 1% | 6% | -6.6% | -12% | -1% | ? | -11%
O=C(OCC(=O)c1c[nH]c2ccccc12)c1cccc(O)c1 | 16% | 27% | 2% | -7.0% | -14% | -3% | 4% | ?
CNC(=S)N(CCc1c(C)[nH]c2ccc(OC)cc12)Cc1cccnc1 | -1% | 4% | -1% | . | . | . | -2% | ?
COc1ccc(CCN(C)c2ccc(S(=O)(=O)N3CCCC3)cn2)cc1OC | ? | -27% | -3% | . | . | . | 0% | 16%[46.1 µM]
COc1ccccc1CCC(=O)Oc1ccccc1C#N | 2% | . | -17% | . | 3% | . | -3% | .
C=CCOc1ccc(C2N3CC4(CC)CN2CC(CC)(C3)C4=O)cc1 (centres undefined) | ? | -16% | -3% | -1.2% | -5% | 8% | -3% | -1%
CC(C)OC(=O)c1ccc(NC(=S)NC(=O)c2cncc(Br)c2)cc1 | -22% | 1%[46.1 µM] | 9% | . | 3% | . | 4% | 28%[46.1 µM]
CCCCn1cnc2c(oc3ccccc32)c1=O | 45%[activator] | . | -9% | . | -3% | . | 9% | .
Cc1ccc(-n2ncc(C(=O)NCc3cccs3)c2C2CCN(C(=O)OC(C)(C)C)CC2)c(C)c1 | -4% | . | . | -10% | . | 2% | . | .
CCOC(=O)CC1CCCCN1C(=O)c1ccc2oc(CCc3ccccc3)nc2c1 (centres undefined) | 1% | . | -8% | . | -14% | . | -1% | .
Cc1ccc2nc(NCCc3ccccc3)c3nncn3c2c1 | 13%&24% | -2%[46.1 µM] | 20% | -0.8% | -4% | 3% | -1% | 6%[46.1 µM]
Cc1cccc(N2CCN(Cc3nnc(-c4ccccc4C)o3)CC2C)c1 (centres undefined) | -4% | -8%[46.1 µM] | . | -2.2% | . | 10% | . | -8%[46.1 µM]
Cc1nn(C(C)C)c(C)c1CN1CCC(C(=O)Nc2cccc(-c3cccc(F)c3)c2)CC1 | -17% | . | 3% | . | 1% | . | -6% | .
Cc1ccc(N(CC(=O)NC2CCCC2)C(=O)c2c(C)noc2C)cc1C | -13% | -7% | -9% | 3.6% | -14% | 2% | -6% | -10%
O=C(N/C=C/c1ccco1)NCc1ccccc1 | -7% | ? | 13% | . | . | . | 8% | 11%[46.1 µM]

Next entries:
mol | StopGo reporter | LASV entry inh | RE007 growth inh | Cruzain inh Det | NS1 inh | Cruzain noTriton | SARS PLpro yeast | MARV entry inh
CCOC(=O)C1CCN(C(=O)c2ccc(CNS(=O)(=O)c3ccc(C)cc3)cc2)CC1 | -11% | -8%[46.1 µM] | -8% | . | . | . | 4% | ?
Cn1c(SCC(=O)NC(C)(C)C)nnc1-c1cnccn1 | 7% | 17% | -11% | -3.4% | 7% | -18% | -2% | 15%
Cc1cc(N2CCN(C)CC2)nc2ccc(NC(=S)NCCN3CCc4ccccc4C3)cc12 | -22% | . | -1% | . | -3% | . | 1% | 0%
Cc1ccc(NC(=S)N2CCN(S(C)(=O)=O)CC2)cc1Cl | 16% | -8% | -20% | . | 5% | . | -5% | ?
